Luciferase inh: inhibitors of firefly (Photinus pyralis) luciferase | purified P. pyralis luciferase, luminescence, biochemical | AID 1347043 | Potency, µM (doses to about 115 µM), inactives show top-dose activity change, negative = inhibition, usual class: inhibitors | 76,000 compounds, 2.5% hits; also: potency is read from the fitted curve at half-maximal effect; nearly all actives have a fitted effect of over 65% in size
Target sequence (P08659 whole entry, looked up): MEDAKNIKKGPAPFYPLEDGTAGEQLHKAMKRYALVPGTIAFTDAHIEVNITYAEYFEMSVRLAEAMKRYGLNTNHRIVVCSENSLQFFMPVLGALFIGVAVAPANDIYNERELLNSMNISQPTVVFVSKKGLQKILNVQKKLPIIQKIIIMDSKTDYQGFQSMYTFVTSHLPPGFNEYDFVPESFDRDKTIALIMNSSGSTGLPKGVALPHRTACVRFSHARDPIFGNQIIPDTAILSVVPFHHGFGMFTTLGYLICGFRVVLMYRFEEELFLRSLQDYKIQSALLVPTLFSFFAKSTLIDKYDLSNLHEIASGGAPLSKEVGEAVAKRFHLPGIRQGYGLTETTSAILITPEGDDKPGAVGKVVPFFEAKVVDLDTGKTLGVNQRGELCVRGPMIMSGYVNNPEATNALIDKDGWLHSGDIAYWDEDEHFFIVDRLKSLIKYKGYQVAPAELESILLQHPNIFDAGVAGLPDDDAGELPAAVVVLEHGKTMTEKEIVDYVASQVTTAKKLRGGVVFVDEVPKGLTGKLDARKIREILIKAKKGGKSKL
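FLuc 10nM, D-luciferin 10uM, ATP 10uM, Mg acetate 10mM, Tris acetate pH 7.5, Tween/BSA; cpd qHTS; enzyme added last; CCD luminescence.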
SNCA expr inh: inhibitors of alpha-synuclein (SNCA) gene expression. HEK-293 SNCA-luciferase knock-in, luminescence, 24 h. 140,000 compounds, 0.17% hits. Potency, µM (doses to about 57.2 µM), inactives show at the highest dose activity change, negative = inhibition, actives largely listed as inhibitors;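 also: potency is read from the fitted curve at half-maximal effect; plate controls were DMSO cells for no effect and cell-free wells for full effect; nearly all actives have a fitted effect of over 45% in size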
HEK293 viab: reduces viability of HEK-293 SNCA reporter cells; Potency, µM (series often up to 57.1 µM), without a hit: at the top dose activity change, negative = cytotoxicity, hits mostly cytotoxic; 150,000 compounds, 0.12% hits; AID 1671193; HEK-293-SNCA-luc viability, GF-AFC fluorescence, 24 h;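 also: potency is read from the fitted curve at half-maximal effect; 0% = DMSO-treated cells and -100% = medium-only wells without cells; nearly all actives have a fitted effect of over 30% in size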
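Cytotoxicity counterscreen: after 24 h compound treatment of genome-edited SNCA-luciferase HEK-293 cells, live-cell protease substrate GF-AFC read by fluorescence after 30 min; activity scaled between DMSO (0%) and medium-only (-100%), curves Hill-fitted.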
IP6K1 inhibitor: IP6K1 kinase inhibition | activity change, % (series mostly up to about 58 µM) | Q92551 | AID 1645851 | 140,000 compounds, 0.81% hits | IP6K1 kinase, ADP-Glo luminescence, 2 h; hits give low values; in the data active = activity change below about -25%
Target sequence (Q92551 whole entry, looked up): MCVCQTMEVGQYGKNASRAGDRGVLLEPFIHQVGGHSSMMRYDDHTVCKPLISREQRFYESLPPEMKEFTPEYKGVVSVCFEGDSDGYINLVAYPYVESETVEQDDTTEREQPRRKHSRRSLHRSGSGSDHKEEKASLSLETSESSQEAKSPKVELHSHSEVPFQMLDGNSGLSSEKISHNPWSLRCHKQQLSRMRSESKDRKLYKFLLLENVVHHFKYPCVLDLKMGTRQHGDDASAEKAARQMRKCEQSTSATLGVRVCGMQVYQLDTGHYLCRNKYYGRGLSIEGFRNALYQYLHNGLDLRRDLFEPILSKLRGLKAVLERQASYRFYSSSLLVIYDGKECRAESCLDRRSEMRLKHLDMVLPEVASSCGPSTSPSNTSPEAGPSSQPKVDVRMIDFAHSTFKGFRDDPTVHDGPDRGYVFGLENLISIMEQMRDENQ
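ADP-Glo luminescence measures ADP made by human IP6K1 during a 2 h RT reaction with ATP/IP6 (mix at 1.3 mM/130 uM); top library doses 57.5 and 19.1 uM final.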
HEK cytotox: cytotoxic compounds in HEK 293 cells. 94,000 compounds, 6.6% hits. Potency, µM (highest dose often 115 µM), inactives show at the top dose activity change, negative = cytotoxicity, hits mostly inhibitors. HEK 293 viability, ATP luminescence (CellTiter-Glo), 48-72 h; also: potency is read from the fitted curve at half-maximal effect; nearly all actives have a fitted effect of over 60% in size
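qHTS cytotoxicity; HEK 293, 250 cells/well; compound pinned; 48 or 72 hr, 37 degree Celsius, 5% CO2, 95% humidity; CellTiter-Glo, 10 min RT; luminescence (ATP).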
NIH3T3 tox: kills NIH 3T3 cells; 94,000 compounds, 4.3% hits; Potency, µM (doses to about 96.7 µM), for the others: at the highest dose activity change, negative = cytotoxicity, actives largely listed as inhibitors; NIH 3T3 viability, CellTiter-Glo ATP luminescence, 48-72 h; also: potency is read from the fitted curve at half-maximal effect; nearly all actives have a fitted effect of over 55% in size
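Viability of NIH 3T3 cells after 48 or 72 hr compound treatment at 37 °C was assessed by CellTiter-Glo, with luminescence imaged following a 10 min room-temperature step.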
* marks the source's active call; other numbers are inactive results; i = inactive; ? = inconclusive; . = not tested or not shown; [ ] = another dose, or the depositor's remark. Unless noted, calls follow the shape of the dose curve; as a rule, active = well fitted curve in the direction sought with a large enough effect; inconclusive = small, poorly fitted or top-dose-only effect, or another doubt; inactive = no such curve, though single readings can be large; an effect the other way counts as inactive or inconclusive. Unless noted, % is scaled to controls: 0 for no effect and ±100 for the full control effect. Only part of the results is shown, so the mix of outcomes need not match the whole.

1. CCOCCn1nc(C)cc1C(=O)N1CCC2(CC1)[C@H](O)C[C@@H]2OCC
2. CN1CCC(C(=O)N2CCC3(CC2)CN(C(=O)c2ccc(Cl)cc2)CCO3)CC1
3. COCCOCc1nc(C2CCN(C(=O)Nc3ccc(OC)c(OC)c3)CC2)no1
4. Cc1nn(C)c(C)c1CCCN(C)C(=O)c1ccc2c(c1)C(O)CCCCCN2C (stereo unspecified)
5. Cc1cc(N2CCCC(Cn3cc(Cc4ccccc4)nn3)C2)nc(N)n1 (stereo unspecified)
6. CC(O)c1cc2n(n1)CCN(C(=O)CN1CCCN(C)CC1)C2 (stereo unspecified)

assay / compound | 1 | 2 | 3 | 4 | 5 | 6
Luciferase inh | -2% | . | 0% | -5% | 5% | 4%
SNCA expr inh | ? | 8% | -16% | -25% | -16% | 5%
HEK293 viab | ? | 3% | 3% | -9% | -24% | 5%
IP6K1 inhibitor | 12 | -3 | -6 | -3 | 22 | 1
HEK cytotox | -1% | -4% | -6% | 35µM* | ? | -15%
NIH3T3 tox | -10% | i | i | ? | ? | -15%

7. O=C(NC1CCN(c2cc(-c3cccs3)[nH]n2)C1)c1ccc2nc[nH]c2c1 (stereo unspecified)
8. O=C(c1ccc2[nH]ccc2c1)N1CCCC(Cc2noc(-c3cnccn3)n2)C1 (stereo unspecified)
9. COc1ccc(-c2ccc3nc(-c4ccc(SC)cc4)oc3c2)c(OC)c1OC
10. CCCc1cc(C(=O)N2CC(=O)N(CC(C)C)CC(OCc3ccccc3F)C2)n(C)n1 (stereo unspecified)
11. FC1(F)CN[C@H](c2nc(-c3ccncc3)no2)C1
12. O=C(NCc1nnc2n1C(C(=O)NCCc1ccc(Cl)cc1)CC2)c1cccnc1 (stereo unspecified)

assay / compound | 7 | 8 | 9 | 10 | 11 | 12
Luciferase inh | -20% | 3% | ? | 7% | 5% | .
SNCA expr inh | 0% | -5% | 14% | 3% | -20% | 23%
HEK293 viab | -9% | -7% | 4% | -7% | 3% | -2%
IP6K1 inhibitor | 5 | 4 | -2 | -4 | 24 | -3
HEK cytotox | 12% | -1% | ? | 1% | i | i
NIH3T3 tox | -10% | -5% | ? | i | -8% | 1%

13. CCCn1ccc2sc(C)c(C(=O)NCCC3=CCCCC3)c2c1=O
14. COCCN1CCCCCC(O)c2cc(C(=O)NCc3ccccc3OC)ccc21 (stereo unspecified)
15. Cc1cccc(OCCc2noc(C3CCN(C(=O)CN4CCCCCC4)C3)n2)c1 (stereo unspecified)
16. O=C(O)C[C@@H]1CCN(C(=O)c2ccc(C(F)(F)F)cc2)C[C@@H]1CCN1CCN(c2ccccn2)CC1
17. O=C(NCc1cccnc1)[C@@H]1C[C@@H](O)CN1C1CCN(C(=O)c2ccccc2F)CC1
18. CCC(=O)N1CCc2ccc(C(=O)NC3CCCCC3)cc21

assay / compound | 13 | 14 | 15 | 16 | 17 | 18
Luciferase inh | -5% | 3% | 5% | 0% | 10% | 2.2µM*
SNCA expr inh | ? | -19% | 32%[activator] | -10% | 3% | ?
HEK293 viab | 0% | -4% | -8%[12.5 µM] | 10% | 0% | 1%
IP6K1 inhibitor | -3 | 5 | 4 | 3 | 30 | -12
HEK cytotox | ? | -31% | ? | 1% | 2% | -20%
NIH3T3 tox | -30% | ? | ? | -1% | -2% | -15%

19. COC[C@H]1CCCN1C(=O)[C@@H](C)C1CC[C@@]2(C)CC[C@H](NC(=O)c3ccccn3)[C@@H](C)[C@@H]2[C@H]1O (stereo partly specified)
20. CCC(CC)NC(=O)C1Cn2cccc2C(=O)N1Cc1cccnc1 (stereo unspecified)
21. CN1CC(=O)N(C2CCCNC2)Cc2c(NC3CCC3)ncnc21 (stereo unspecified)
22. Cc1noc([C@@H]2C[C@H](NC(=O)c3ccc(C#N)cc3)CN2C)n1
23. COC[C@]1(O)CCN(S(=O)(=O)c2ccccc2OC)CC1(C)C
24. O=C(Cc1ccc(F)cc1)NCCNC(=O)c1cccc(-c2ccsc2)c1

assay / compound | 19 | 20 | 21 | 22 | 23 | 24
Luciferase inh | -5% | 1% | . | -7%[172 µM] | 9% | .
SNCA expr inh | 1% | -20% | -12% | -2%[87.6 µM] | -15% | -3%
HEK293 viab | 1% | -7% | 5% | -2%[87.6 µM] | -8% | 0%[12.5 µM]
IP6K1 inhibitor | -9 | -13 | -11 | 4 | 17 | -3
HEK cytotox | i | -1% | i | i | -7% | ?
NIH3T3 tox | i | -3% | i | -1%[174 µM] | -2% | -22%

25. CN(C)C(=O)CC(O)c1cc2n(n1)CCN(Cc1ccc3c(c1)OCCO3)C2 (stereo unspecified)
26. Cc1ccsc1C(=O)N1CCC(N2C[C@H](O)C[C@H]2C(=O)NC2CCCCC2)CC1
27. Cc1ccc(S(=O)(=O)NC[C@H]2OC[C@@H](NC3CCNCC3)[C@@H]2O)cc1
28. CCn1ccc(C(=O)N2CCC(N3C[C@H](O)C[C@H]3C(=O)NC3CCCCC3)CC2)n1
29. CC(=O)N1CCC(N[C@@H]2CO[C@H](CNS(C)(=O)=O)[C@H]2O)CC1
30. Cn1nc(-c2cccc(F)c2)c(N2CCCC2)c1NC(=O)NCc1ccccc1

assay / compound | 25 | 26 | 27 | 28 | 29 | 30
Luciferase inh | -4% | 0% | -2% | -8% | 3%[172 µM] | .
SNCA expr inh | 1% | 6% | 2% | 2% | -3%[87.6 µM] | 15%
HEK293 viab | -2% | 0% | 6% | ? | -2%[87.6 µM] | 13%
IP6K1 inhibitor | 15 | -2 | -16 | 0 | -14 | 14
HEK cytotox | -3% | -4% | i | i | i | 50µM*
NIH3T3 tox | -7% | -17% | i | -6% | i | ?

31. CC(C)(C)CC(=O)N1CCC(N2CCCC(C(=O)NCc3ccccc3)C2)CC1 (stereo unspecified)
32. Cc1c(C(C)NC(=O)Cn2ccc(=O)[nH]c2=O)cnn1-c1ccc(F)cc1F (stereo unspecified)
33. CCOc1ccccc1C(=O)N1CCC2(CC1)NC(=O)N(c1ccccc1)N2
34. O=C(c1ccc(F)cc1)N1CCc2nc(OCC3CC3)ccc2C1
35. O=C(c1cccc(-n2cnnc2)c1)N1CCCC(Nc2ccc(F)c(F)c2)C1 (stereo unspecified)
36. CC1CCCCN1c1ccc(C(N)=O)cc1NC(=O)c1cccc(-n2cnnc2)c1 (stereo unspecified)

assay / compound | 31 | 32 | 33 | 34 | 35 | 36
Luciferase inh | -3% | 2% | 1% | 2% | -2% | 3%
SNCA expr inh | ? | -25% | 1% | -4% | ? | 5%
HEK293 viab | 15% | 6% | -3% | 12%[12.5 µM] | ? | 2%
IP6K1 inhibitor | -6 | 23 | -5 | 5 | 12 | -12
HEK cytotox | -1% | i | ? | ? | 1% | -24%
NIH3T3 tox | -1% | 5% | ? | -26% | -1% | ?

Single records, as listed above. Values in the order: Luciferase inh	SNCA expr inh	HEK293 viab	IP6K1 inhibitor	HEK cytotox	NIH3T3 tox
Listed for COCCN1CCCCCC(O)c2cc(C(=O)NCc3ccccc3OC)ccc21 (stereo unspecified) = 3%	-19%	-4%	5	-31%	?
Listed for O=C(c1ccc(F)cc1)N1CCc2nc(OCC3CC3)ccc2C1 = 2%	-4%	12%[12.5 µM]	5	?	-26%
Listed for O=C(c1cccc(-n2cnnc2)c1)N1CCCC(Nc2ccc(F)c(F)c2)C1 (stereo unspecified) = -2%	?	?	12	1%	-1%

(next part)
37. Cc1oc(-c2cccs2)nc1CN1CCCC(c2ccn[nH]2)C1 (stereo unspecified)
38. CN(Cc1cn(-c2ccccc2)nn1)Cc1cc(-c2ccncc2)no1
39. O=C(c1cccs1)N1CCc2nc(OCC3CC3)ccc2C1
40. CCOc1ccc(CNC(=O)c2c(C)sc3ccn(C)c(=O)c23)cc1
41. COc1ccccc1-c1nc2cnccn2c1NCCC(=O)Nc1cc(F)ccc1F
42. COC(=O)C(Cc1ccccc1)NC(=O)c1ccccc1 (stereo unspecified)

assay / compound | 37 | 38 | 39 | 40 | 41 | 42
Luciferase inh | -22% | 10% | -23% | -6% | -4% | .
SNCA expr inh | 6% | -2% | 15% | -9% | -1% | .
HEK293 viab | -8% | -16% | 6%[12.5 µM] | 9% | ? | -4%
IP6K1 inhibitor | 3 | 9 | 6 | 0 | 30 | 8
HEK cytotox | ? | ? | ? | -8% | -7% | .
NIH3T3 tox | ? | -24% | -18% | -1% | -9% | .

43. O=C(NCC1Cn2cccc2C(=O)N1Cc1ccccc1)c1n[nH]c(=O)c2ccccc12 (stereo unspecified)
44. Cc1ccc(S(=O)(=O)NC[C@H]2OC[C@@H](NC3CCN(C)CC3)[C@@H]2O)cc1
45. CC(=O)N1CCC(N2C[C@H](O)C[C@H]2C(=O)NC2CCCCC2)CC1
46. CCN(CC)C(=O)c1cc2c(s1)CCC(C(=O)O)C2 (stereo unspecified)
47. CC(C)c1noc([C@@H]2C[C@H](NC(=O)C3CCCCC3)CN2C)n1
48. CCn1cc(S(=O)(=O)NCC2Cn3cccc3C(=O)N2Cc2ccccc2)cn1 (stereo unspecified)

assay / compound | 43 | 44 | 45 | 46 | 47 | 48
Luciferase inh | -9% | 3%[172 µM] | 0% | -7% | -5%[172 µM] | 6%
SNCA expr inh | 34%[activator] | 14%[87.6 µM] | -1% | -1% | -3%[87.6 µM] | -15%
HEK293 viab | -18% | 6%[87.6 µM] | 2% | 0% | -3%[87.6 µM] | -5%
IP6K1 inhibitor | -1 | 3 | 4 | -5 | -9 | -3
HEK cytotox | -50% | -15%[172 µM] | i | 8% | -9%[172 µM] | -2%
NIH3T3 tox | -20% | -12%[138 µM] | 3% | -6% | -2%[174 µM] | 0%

49. O=S1(=O)CCC(S(=O)(=O)Nc2ccccc2)C1 (stereo unspecified)
50. COc1ccc(NC(=O)N2CCCC(Cn3cnc4cccnc43)C2)cc1OC (stereo unspecified)
51. CNC(=O)[C@@H]1CN(S(=O)(=O)c2cccnc2)C[C@H]1C1CCN(C)CC1
52. CN1C(=O)Cc2cc(C(=O)NC3CCCCC3)ccc21
53. COc1ccc(NC(=O)N[C@H]2[C@H](O)[C@@H](N(C)CCc3ccccn3)[C@@H]3OC[C@H]2O3)cc1
54. Cc1ccc(C(=O)N2C(C(=O)N3CCCC3)COC23CCN(C(=O)c2ccccc2C)CC3)cc1 (stereo unspecified)

assay / compound | 49 | 50 | 51 | 52 | 53 | 54
Luciferase inh | -3% | 0% | -4% | -14% | ? | 0%
SNCA expr inh | -15% | 6% | 8% | 26% | 32%[activator][87.6 µM] | -9%
HEK293 viab | 3% | 0% | 3%[12.5 µM] | 3% | -8%[87.6 µM] | -9%
IP6K1 inhibitor | -7 | 3 | 0 | 1 | 4 | 23
HEK cytotox | 0% | -12% | -8% | -22% | -1%[172 µM] | -19%
NIH3T3 tox | -1% | -20% | i | -14% | -16%[174 µM] | -18%

55. COc1cccc(-c2nc3cnccn3c2NCCC(=O)N2CCN(C(C)C)CC2)c1
56. O=C(c1ccc2c(c1)OCO2)N1CCC2(CC1)NC(=O)N(c1ccc(F)cc1)N2
57. O=C(c1cnn(Cc2ccccc2)c1)N1CCCn2nc(CO)cc2C1
58. Cc1nnnn1CC(=O)Nc1nn(Cc2ccccc2)c2cccc(OC(C)C)c12
59. CC(=O)NCC1CN(S(=O)(=O)c2cccnc2)CC12CCCCC2 (stereo unspecified)

assay / compound | 55 | 56 | 57 | 58 | 59
Luciferase inh | 1% | 3% | 9% | -15% | .
SNCA expr inh | 2% | -4% | -16% | -28% | 28%
HEK293 viab | ? | 11% | 1% | -6% | 11%
IP6K1 inhibitor | 6 | -3 | 17 | 0 | 25
HEK cytotox | -11% | -28% | -5% | -26% | -7%
NIH3T3 tox | 4% | -13% | -10% | -32% | -31%
